Calb FLC: C. albicans growth modulation with fluconazole. C. albicans CaCi-2 (fluconazole-resistant clinical isolate) + fluconazole, Alamar Blue growth, 48 h. growth inhibition, % (no concentration beside the values). 300,000 tested, 0.57% active;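 active = most replicates above 75%; inconclusive = exactly half above 75%; inactive = most below 75%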;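 note: all wells also contain fluconazole at 8 µg/ml as a sub-toxic cotreatment; 0% = median of DMSO wells and 100% = median of geldanamycin control wells; wells of about 8 µL received 7.5 nL stock; the first replicate is given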
HNF4A DNA FP: change in binding of human HNF4 alpha to DNA; HNF4a-FITC DNA binding, fluorescence polarization, 1 h; activity change, % at 10 µM; 360,000 tested, 0.3% active; in the data active = activity change above about 30%, passing the limit was not always enough;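 note: controls were the assay level and a saturating level of protein; the project sought stronger binding though the title names inhibitors; some compounds called inactive have numbers as strong as hits; positive values seem to mean higher polarization but the record does not say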
Target sequence (P41235 whole entry, looked up): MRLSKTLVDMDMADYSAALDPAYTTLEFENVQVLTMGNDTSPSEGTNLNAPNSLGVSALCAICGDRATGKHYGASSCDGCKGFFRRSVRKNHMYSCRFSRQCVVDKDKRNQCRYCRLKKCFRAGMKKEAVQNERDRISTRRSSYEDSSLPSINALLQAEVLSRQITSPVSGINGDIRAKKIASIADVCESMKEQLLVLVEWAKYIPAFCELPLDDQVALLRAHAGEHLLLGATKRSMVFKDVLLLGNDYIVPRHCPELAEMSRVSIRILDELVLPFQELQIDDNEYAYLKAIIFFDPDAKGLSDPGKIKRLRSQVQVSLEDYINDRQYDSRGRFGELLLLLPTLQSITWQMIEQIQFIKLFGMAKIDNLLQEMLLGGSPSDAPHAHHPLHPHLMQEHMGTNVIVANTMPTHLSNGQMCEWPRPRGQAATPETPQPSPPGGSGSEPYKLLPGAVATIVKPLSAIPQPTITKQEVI
RanGTP-Impb inh: inhibitors of RanGTP-importin-beta interaction, primary screen, biochemical, FRET, CFP-Ran, YFP-importin-beta, homogeneous; cell-free CFP-Ran/YFP-importin-beta FRET ratio; inhibition, % (no concentration beside the values); 300,000 tested, 1.1% active; AID 2216;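 active = most replicates above 15%; inconclusive = exactly half above 15%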;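 note: 0% = DMSO wells and 100% = Ran loaded with GDP instead of GTP; wells of about 40 µL received 100 nL stock; the first replicate is given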
Vif TR-FRET: inhibitors of Vif binding to APOBEC3G peptide, primary screen, biochemical, TR-FRET, GST-Vif 1-94, biotin-A3G peptide, dose response retest (AID 1117319); TR-FRET GST-Vif / biotin-A3G peptide binding; higher % means a stronger effect; test concentration not given here; strong numbers were not always called active; inhibition, %, or IC50 in µM where a hit was titrated; 260,000 tested, 0.57% active;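 active = above the screen mean plus three standard deviations and confirmed in dose response; inconclusive = results disagree or hit not tested in dose response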;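 note: Vif residues 1-94 fused to GST binding biotinylated APOBEC3G peptide 110-148; 0% = full assay without inhibitor and 100% = GST in place of GST-Vif; retest series ran down from 100 µM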
B2AR ag: activates human beta-2 adrenergic receptor causing internalization; 340,000 tested, 0.43% active; response, % (no concentration beside the values); Am2.2-beta2AR cells, FAP receptor internalization, flow cytometry; reference of the scale not given here; P07550; AID 504454;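 active = response above a set limit, near 3 SD of response in nonfluorescent compounds, cut at about 42% in these data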;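 note: stock transfer was 100 nL into about 11 µL; a reference agonist was the positive control; negative values mostly stem from fluorescent compounds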
Target sequence (P07550 whole entry, looked up): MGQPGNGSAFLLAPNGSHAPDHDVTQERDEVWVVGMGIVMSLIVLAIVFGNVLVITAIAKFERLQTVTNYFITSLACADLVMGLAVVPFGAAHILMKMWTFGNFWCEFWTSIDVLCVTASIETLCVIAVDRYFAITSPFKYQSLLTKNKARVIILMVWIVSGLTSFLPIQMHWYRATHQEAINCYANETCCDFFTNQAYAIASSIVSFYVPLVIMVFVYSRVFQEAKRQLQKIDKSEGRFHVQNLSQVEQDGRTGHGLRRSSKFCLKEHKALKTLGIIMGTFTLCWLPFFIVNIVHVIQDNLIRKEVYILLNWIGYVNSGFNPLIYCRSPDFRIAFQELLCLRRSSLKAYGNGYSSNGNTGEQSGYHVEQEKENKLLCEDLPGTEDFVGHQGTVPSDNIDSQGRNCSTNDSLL
ALR inh: inhibitors of human sulfhydryl oxidase ALR | inhibition, % (test concentration not listed) | purified ALR, DTT oxidation, H2O2 HRP-luminol luminescence | AID 485317 | 290,000 tested, 3.8% active | P55789;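 active = mean and each replicate at 75% or more; inconclusive = only one of the two met; inactive = neither met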;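 note: stock transfer was 7.5 nL into about 7.5 µL; 0% = neutral wells and 100% = wells with inactivated enzyme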
LANA-H2A inh: blocks KSHV LANA binding to histone H2A/H2B. Q9QR71. cell-free LANA-H2A/H2B peptide, fluorescence polarization. inhibition, % (concentration not given with the values). 320,000 tested, 0.6% active. AID 2629; in the data active = inhibition mostly above about 10%, no sharp cut-off; inactive = mostly below about 6.7%;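 note: stock transfer was 7.5 nL into about 10 µL; 0% = median of vehicle wells and 100% = median of positive control wells; one replicate is shown; the record names a cut of 25% in any replicate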
Numbers without * were called inactive; u = inconclusive; x = not tested or not shown; & = joins results of further samples.

mol	Calb FLC	HNF4A DNA FP	RanGTP-Impb inh	Vif TR-FRET	B2AR ag	ALR inh	LANA-H2A inh
COC(=O)N1[C@H](C)C=C[C@]1(Cc1ccccc1)C(=O)NCCCNc1ncc(C(F)(F)F)cc1Cl	0	6.1	3.5	x	9	6	-0.8
CN(Cc1nc(-c2cnccn2)no1)CC1CCN(Cc2ccccc2)CC1	-5	-1.1	u	x	-7	-10	-2.9
CCN(CC)CCOCCOc1ccc(Cl)c2ccccc12	-18	1.0	-1.1	x	14	-10	-4.9
COc1cc(C(=O)Nc2scc(-c3ccc(C)cc3)c2C(=O)O)cc(OC)c1OC	4	2.1	3.0	2%	6	7	0.0
Cc1cccc(NC(=O)c2ccccc2O)c1C	-9	-0.7	5.1	u	-1	4	2.6
CN(C)C=Nc1c(Br)cc(Br)c2nonc12	5	29	-22	u	10	-1	-10
COc1cc(/C=N/NC(=O)c2nnn(-c3nonc3N)c2C(C)C)ccc1OCc1ccc(F)cc1	-1	-4.0	4.4	x	10	-9	-9.7
O=C(NC1CCCCC1)N1CCC(n2c(=O)[nH]c3ccccc32)CC1	-3	-1.1	-6.3	-1%	18	-2	4.7
COc1ccc(CCN2CCCn3c2nc2c3c(=O)n(CC(C)C)c(=O)n2C)cc1OC	-6	1.9	4.0	3%	-8	-1	-3.1
Cc1ccc(-c2nnc(SCC(=O)N3c4ccccc4NC(=O)C3(C)C)n2N)cc1	7	12	-1.7	11%&-6%	1	18	-1.9
COc1cc(NC(=O)c2ccccc2)c(OC)cc1NC(=O)CN1CCN(c2ccccn2)CC1	-6	-2.1	3.1	-3%	13	-18	-0.6
Cc1ccc(OCC(=O)N/N=C/C=C/c2ccco2)c(Br)c1	-1	1.4	0.7	x	-2	x	x
COc1cc(CN2CCCC(C)C2)ccc1OCc1ccccc1 (centres undefined)	-13	-5.7	2.7	x	-8	x	-5.7
COC(=O)C1=C(C)NC(C)=C(C(=O)OC)C1c1ccc(-c2cccc(Cl)c2Cl)o1	-18	1.3	-4.2	25%	4	30	0.1
COc1ccccc1NC(=O)NCCC1=CCCCC1	-13	-2.7	1.0	11%	7	x	8.7
FC(F)(F)c1cccc(NC(=S)Nc2cccc(Cl)c2)c1	-43	0.2	4.8	-2%	3	-12	-7.9
COc1ccc2c(c1)C1(Nc3ccccc3-c3nc4ccccc4n31)C(=O)N2 (centres undefined)	-1	-1.7	2.3	26%	-4	4	-2.2
Cc1ccc(C(=O)Nc2nnc(Cc3ccccc3)s2)cc1	-8	3.0	0.8	-32%	3	1	-1.2
CC1CCN(c2nc3ccc(C(=O)O)cc3s2)CC1	-5	1.6	1.1	-2%	-2	5	-0.3
CCC1CCCCN1C(=O)CSc1nnc(-c2ccc3c(c2)OCCO3)o1 (centres undefined)	7	1.2	1.4	24%	-7	-1	0.4
CC1CC(=NNC(=O)C2COc3ccccc3O2)CC(C)(C)C1 (centres undefined)	x	0.2	x	x	2	14	-0.1
COc1ccc(NCC(=O)n2c(C)c(C)c3ccccc32)cc1OC	-19	5.1	-3.2	x	5	x	4.4
O=c1c2ccccc2ncn1-c1cccc(Br)c1	1	-2.1	-3.5	x	-1	-3	12
COc1ccc(-c2nnc(SC(C)C(=O)NNC(=O)c3ccc(C)cc3)o2)cc1 (centres undefined)	-17	-0.7	u	x	-5	x	-5.3
O=C(c1cc2cc(Cl)ccc2[nH]1)N1CCN(c2ccccc2F)CC1	14	0.0	-0.2	x	-8	x	0.5
Cc1c(C(=O)OC(C)C)sc2nc[nH]c(=O)c12	32	2.1	2.3	4%	7	1	1.4
COC(=O)c1ccc(/C(O)=C(\C#N)c2nc3ccccc3s2)cc1	0	3.0	-1.0	6%	23	-14	-2.3
CN(Cc1c(F)cccc1Cl)S(=O)(=O)c1cccs1	-6	1.1	2.7	x	1	-2	-0.9
CCC(=O)c1ccc(OCC(O)Cn2c(C)nc3ccccc32)cc1 (centres undefined)	x	-7.8	x	-3%	-3	x	-5.9
Cc1csc(NC(=O)c2cccc(S(=O)(=O)N3CCN(C)CC3)c2)n1	-15	0.9	3.6	-2%	0	-1	-2.9
CC(=O)NC(Cc1ccccc1)C(=O)N1CCN(C(=O)c2cccs2)CC1 (centres undefined)	-23	-3.1	4.1	u	8	-11	-1.6
O=C(Cc1cccs1)N1CCN(c2ccc(F)cc2)CC1	-3	-0.5	-1.2	x	0	64	-4.8
N=C(N)SCCc1cccc(CCSC(=N)N)c1	x	1.0	4.9	x	6	98*	4.9
C/C(=C\C#N)n1nc(C)cc1N	-10	-4.8	3.2	3%	12	-3	-1.8
Cc1ccc(S(=O)(=O)N2CCN(CCOc3c(Cl)cccc3Cl)CC2)cc1C	x	0.2	x	x	-3	-8	3.2
CN(C(=O)/C=C/c1ccccc1)C1CCCCC1	-1	3.5	-1.4	x	-24	-1	-1.4
Cn1cnc(C(=O)NCc2ccc(CNC(=O)OC(C)(C)C)cc2)c1C(=O)NCc1ccc(CNC(=O)OC(C)(C)C)cc1	x	-2.5	x	x	3	-1	-7.2
O=C(NCc1nnc(SCC(=O)N2CCC(Cc3ccccc3)CC2)o1)c1ccco1	-5	1.7	2.5	x	-7	-6	3.3
COc1ccccc1N1CCN(S(=O)(=O)c2ccc3c(c2)n(C)c(=O)n3C)CC1	0	0.2	0.5	-3%	-4	25	-0.5
CCCN1Cc2cccc(C(=O)Nc3ccc4c(c3)OCCO4)c2C1=O	-3	1.5	-0.1	-6%	0	-17	4.9
COc1ccc(-c2noc(CCC(N)=O)n2)cc1OC	-10	3.3	u	-2%	-2	5	-2.2
O=C(NCCc1ccc(Cl)cc1Cl)C1=CC=CN2CCS(=O)(=O)N=C12	x	2.0	x	-5%	-10	-3	x
CCCOc1ccccc1OCC(=O)Nc1ccc(S(=O)(=O)N2CCCCC2)cc1	-7	-0.9	7.6	-2%	0	-13	-1.9
O=C(NCCc1ccccc1)c1oc2ccccc2c1COc1ccccc1	9	-1.3	-3.0	3%	0	3	-241
O=C(CN1C(=O)S/C(=C\c2ccc(Cl)cc2)C1=O)NC1C=CS(=O)(=O)C1 (centres undefined)	-9	1.9	2.0	x	5	2	5.7
COc1ccc(CCNC(=O)COC(=O)c2ccco2)cc1OC	-2	3.4	0.9	-1%	-11	-6	2.5
CCCSc1nsc(NC(=O)C(c2ccccc2)c2ccccc2)n1	-20	2.1	-1.1	1%	35	-15	-0.4
O=S(=O)(c1ccccc1F)N1CCN(Cc2nc3ccccc3[nH]2)CC1	10	3.5	-0.5	0%	-5	-2	0.7
CCOC(=O)Nc1cc(OCC)c(NC(=O)C2CC2)cc1OCC	-5	2.2	9.5	1%	-6	-20	1.7
O=C(CN1C(=O)C2CC=CCC2C1=O)Nc1nnc(C2CC2)s1 (centres undefined)	x	0.3	x	x	-4	x	-1.2

(next part)
mol	Calb FLC	HNF4A DNA FP	RanGTP-Impb inh	Vif TR-FRET	B2AR ag	ALR inh	LANA-H2A inh
Cc1cc(NCC2CCCCC2)nc2ccccc12	-10	3.1	-0.8	x	1	-3	-3.1
O=C(Nc1ccc(F)c(Cl)c1)c1ccc2c(c1)OCO2	-21	0.1	-0.2	x	-2	-6	1.7
CC(C)CC(=O)Nc1cc(C(F)(F)F)ccc1N1CCOCC1	7	-0.6	1.1	u	-7	-4	3.7
Cn1c(=O)[nH]c(=O)c2c1nc(N1CCCCCC1)n2CC(N)=O	-1	1.3	-0.7	6%	5	15	-0.7
O=C(NCc1ccc2c(c1)OCO2)C1CC(=O)N(CCc2ccc(F)cc2)C1 (centres undefined)	3	2.3	3.3	x	2	1	0.7
O=S(=O)(NCC(O)c1ccccc1)c1cc(Cl)sc1Cl (centres undefined)	-23	-0.8	-0.4	x	-5	-8	-4.8
C=C1CCN(c2ccc(C(=O)NCc3ccc(C)cc3)cc2[N+](=O)[O-])CC1	-5	5.5	1.2	x	-7	2	4.0
CC1CCN(C(=O)CSc2nncn2-c2ccccn2)CC1	-1	-0.5	2.9	5%	-14	-4	4.7
C=CCN1C(=O)CN=C1Nc1cccc(C)c1	-2	2.4	-1.7	-4%	7	7	-4.7
CCCCCc1cc(=O)oc2c(C(CCN3CCN(c4ccccc4)CC3)c3ccc(N(C)C)cc3)c(OC)cc(OC)c12 (centres undefined)	-6	-1.6	3.9	x	-2	x	0.6
NC(=O)CCn1c(C(=O)c2ccc(Cl)cc2)c2ccccc2[n+]1[O-]	-10	-1.3	-2.8	x	-9	-4	4.5
c1ccc(OCCCn2nnc(-c3cccnc3)n2)cc1	25	-0.3	2.0	-1%	-4	-4	-4.4
O=C(NCCS(=O)(=O)N1CCN(c2ccccc2)CC1)c1ccco1	5	3.1	-3.4	1%	-7	4	7.0
COc1ccc(/C=C/C(=O)N2CCN(c3ccccn3)CC2)c2ccccc12	-18	-2.1	-0.7	-4%	-1	x	5.7
Cc1ccc(CN(C(=O)c2csnn2)C(C(=O)NC2CCCC2)c2cccnc2)cc1 (centres undefined)	-15	-1.7	1.3	x	-8	3	2.5
O=C(COC(=O)C1C2CC3OC(=O)C1C3C2)Nc1cccc(C(F)(F)F)c1 (centres undefined)	5	2.7	4.7	19%	-7	-3	-1.5
C/C(=N\NC(=S)NCc1ccccc1)c1ccc(C(C)(C)C)cc1	-17	-1.3	-1.5	9%	30	2	-1.8
O=C(Nc1cccc2ccccc12)c1ccc(Cn2cc(Cl)cn2)cc1	-3	4.9	u	u	-13	-18	1.6
COc1cc(S(=O)(=O)N(Cc2cccnc2)Cc2ccco2)ccc1-n1cnnn1	11	-3.2	2.8	9%	3	-6	-0.4
O=C(CCn1c(=S)oc2ccccc21)NCCC1=CCCCC1	-4	3.0	-0.6	2%	-8	4	-5.1
C/C(=N/NC(=O)c1ccccn1)c1ccncc1	11	2.3	-0.8	5%	40	-6	2.8
CCOC(=O)CNC(=O)OC1CCN2Cc3ccccc3N=C12 (centres undefined)	-2	-3.0	2.7	7%	-9	-4	-4.9
Cc1ccc(-c2nc(SCC(=O)N(C)C3CCS(=O)(=O)C3)[nH]c2-c2ccc(C)cc2)cc1 (centres undefined)	16	-2.0	-0.2	-2%	6	98*	-7.6
Cc1nnc(SCC(=O)Nc2ccc(O)cc2)c2ccccc12	26	-0.8	4.0	x	-2	0	0.4
COc1ccc(NC(=O)c2sccc2SCC#N)cc1	-4	-0.2	0.4	13%	4	-2	-3.2
Cc1cc(C)n(CC(C)C(=O)O)n1 (centres undefined)	12	-4.3	0.2	22%	6	8	4.8
O=C(Nc1ccc(Cl)cc1)C1CCN(C(=O)c2cccs2)CC1	-13	1.9	3.7	x	27	-3	-1.4
CCOc1ccc(CCNS(=O)(=O)c2cc3c(cc2C)NC(=O)CO3)cc1OCC	-5	-4.9	-0.7	x	-2	x	0.1
CCN(CC)CCCNC(=O)CC1Sc2ccccc2NC1=O (centres undefined)	-11	-4.2	-3.8	6%	-4	-1	2.2
C=CCCC(=O)N1CCC(n2nccc2NC(=O)CCCc2ccccc2)CC1	-37	2.7	-2.1	-5%	-22	-2	-4.8
CSc1nc(NCC(C)O)c2c3c(sc2n1)CN(C)CC3 (centres undefined)	-1	-7.8	2.7	x	7	-19	-1.2
CSc1ccccc1C(=O)N1CCN(c2ccc(F)cc2)CC1	11	2.8	2.2	-5%	1	65	3.8

The order is random; overall some 6.3% were active at least once.
